Compound activity (PubChem BioAssay)
2A StopGo: lowers the luciferase signal of an FMDV 2A StopGo reporter; hit rate 1.2% among 410,000; AID 1159524; Potency, µM (titrated, usually from 57.9 µM), for the others: at the highest dose signal change, negative = less light; human cells with a luciferase reporter of 2A StopGo recoding; control for the full effect not named in the record; active = well fitted falling curve with a large enough effect; inconclusive = small, poorly fitted or top-dose-only effect; inactive = no such curve, though single readings can be large or run the other way; tested in HEK293T cells; note: % is set by controls: 0 for no effect and ±100 for the full control effect; nearly all actives have a fitted effect of over 45% in size; luciferase light after 4 h
Lassa entry inh: inhibitors of Lassa virus binding or cell entry | hit rate 1.2% among 300,000 | Potency, µM (titrated, usually from 37.9 µM), without a hit: at the top dose activity change, negative = inhibition, usual class: inhibitors | Lassa virus pseudotype entry inhibition, cell reporter; control for the full effect not named in the record | AID 540256; active means well fitted inhibition curve with a large enough effect; inconclusive means small, poorly fitted or top-dose-only effect, or effect the other way; inactive means flat fitted curve, though single readings scatter; tested in HEK293 cells; note: % is set by controls: 0 for no effect and ±100 for the full control effect; nearly all actives have a fitted effect of over 50% in size; luciferase read-out
RE007 growth inh: less growth of the S. pombe RE007 Vpr strain; Potency, µM (highest dose often 92.2 µM), for the others: at the top dose activity change, negative = less growth; hit rate 0.21% among 360,000; AID 651644; S. pombe RE007 Vpr strain, BacTiter-Glo ATP luminescence, 24 h; control for the full effect not named in the record; active = well fitted falling curve with a large enough effect; inconclusive = small, poorly fitted or top-dose-only effect; inactive = no such curve, though single readings can be large or run the other way;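 note: % is set by controls: 0 for no effect and ±100 for the full control effect; nearly all actives have a fitted effect of over 50% in size; the assay follows cell death caused by Vpr and the record does not say whether a fall means rescue or toxicity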
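Fission yeast strain RE007, carrying one chromosomally integrated HIV-1 vpr copy, was seeded at OD 0.01 in PMG+AL medium with 23 nL pinned compound. After 24 h at 30 °C and 99% humidity, viability was read by BacTiter-Glo luminescence.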
MARV entry inh: inhibitors of Marburg virus binding or cell entry; AID 540276; Potency, µM (highest dose often 37.8 µM), for the others: top-dose activity change, negative = inhibition, actives largely listed as inhibitors; Marburg virus pseudotyped entry inhibition, cell reporter; control for the full effect not named in the record; about a third of the inactives were read at about 46 µM; hit rate 1.8% among 300,000; active = well fitted inhibition curve with a large enough effect; inconclusive = small, poorly fitted or top-dose-only effect, or effect the other way; inactive = flat fitted curve, though single readings scatter; tested in HEK293 cells; about a fifth of its hits are not listed in these tables; note: % is set by controls: 0 for no effect and ±100 for the full control effect; luciferase read-out
Cruzain inh noDet: blocks cruzain activity in detergent-free assay. purified cruzain, Z-FR-AMC fluorescence, no detergent. hit rate 2.3% among 200,000. Potency, µM, for inactives: max response, negative = inhibition, hits mostly inhibitors. P25779. AID 1476;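 note: plate controls were enzyme without inhibitor for no effect and buffer without enzyme for full effect; nearly all actives have a fitted effect of over 40% in size; top concentration of the series not given in the record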
Target sequence (P25779 123-467 limits assumed): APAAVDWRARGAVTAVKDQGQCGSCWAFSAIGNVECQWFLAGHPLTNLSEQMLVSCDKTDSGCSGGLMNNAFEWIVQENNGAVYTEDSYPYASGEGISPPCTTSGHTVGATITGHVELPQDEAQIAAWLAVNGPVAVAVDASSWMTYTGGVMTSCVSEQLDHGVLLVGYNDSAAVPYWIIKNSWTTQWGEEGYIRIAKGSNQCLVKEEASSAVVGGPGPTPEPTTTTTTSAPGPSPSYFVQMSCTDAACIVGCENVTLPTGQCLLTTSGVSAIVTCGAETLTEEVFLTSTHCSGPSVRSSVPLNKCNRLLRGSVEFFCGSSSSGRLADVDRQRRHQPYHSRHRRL
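Detergent-free condition (0.00005% Triton X-100) in acetate buffer pH 5.5 with DTT. 1.5 nM enzyme and compound were pre-mixed 15 min, then 2 uM Z-FR-AMC substrate added; reaction progress from fluorescence change between first and third reads (60 s).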
NS1 function inh: blocks influenza NS1 protein function | S. cerevisiae slowed by influenza A NS1, growth recovery by OD600 | Potency, µM (highest dose often 46.1 µM), for inactives: at the top dose activity, positive = more growth | hit rate 0.4% among 270,000; active means well fitted rising curve with a large enough effect; inconclusive means small, poorly fitted or top-dose-only effect; inactive means no such curve, though single readings can be large or run the other way; note: nearly all actives have a fitted effect of over 50% in size
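A cell-based growth assay was used: compounds that relieve NS1-induced slow growth of budding yeast raise OD600. Assay medium was yeast nitrogen base with ammonium sulphate and -URA supplement, pH 6.0, with 2% galactose.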
Cruzain inh Det: inhibitors of Trypanosoma cruzi cruzain with detergent; P25779; purified cruzain, Z-FR-AMC fluorescence, 0.01% Triton; Potency, µM, without a hit: max response, negative = inhibition, most hits filed as inhibitors; hit rate 0.43% among 200,000;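 note: plate controls were neutral wells for no effect and buffer without enzyme for full effect; nearly all actives have a fitted effect of over 40% in size; top concentration of the series not given in the record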
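Detergent-containing arm of a paired screen for aggregation-based inhibition: 0.01% Triton X-100 present. Cruzain at 1.5 nM cleaved 2 uM Z-FR-AMC at pH 5.5 with 5 mM DTT; AMC fluorescence gain over 60 s measured activity.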
SARS PLpro yeast: inhibitors of SARS-CoV papain-like protease in yeast. hit rate 0.19% among 330,000. S. cerevisiae expressing SARS-CoV PLpro, growth rescue; control for the full effect not named in the record. Potency, µM (series often up to 32.9 µM), for inactives: top-dose activity, positive = growth rescue. AID 485353; active means well fitted rising curve with a large enough effect; inconclusive means small, poorly fitted or top-dose-only effect; inactive means no such curve, though single readings can be large or run the other way; note: 0% is about no effect; nearly all actives have a fitted effect of over 55% in size; growth read by luminescence after 48 h
* marks the source's active call; other numbers are inactive results; ? = inconclusive; / = no result given; [ ] = remark or other dose. Unless noted, calls come from the whole dose curve; as a rule, active = well fitted curve in the direction sought with a large enough effect; inconclusive = small, poorly fitted or top-dose-only effect, or another doubt; inactive = no such curve, though single readings can be large; an effect the other way counts as inactive or inconclusive. Potency is the fitted concentration of half-maximal effect. Not a hit list, and some 4.7% of all compounds hit somewhere here.

SMILES	2A StopGo	Lassa entry inh	RE007 growth inh	MARV entry inh	Cruzain inh noDet	NS1 function inh	Cruzain inh Det	SARS PLpro yeast
CCOc1nnc(C)c2c(C)n(-c3cccc(OC)c3)nc12	-14.7%	?	-8.9%	7.6%	5.3%	7.6%	1.7%	2.3%
CCOC(=O)c1c(NC(=O)COc2cc(C)ccc2C(C)C)sc(C)c1C	-6.0%	0.9%[46.1 µM]	/	/	8.1%	/	0.0%	/
O=C(CN1CCOCC1)Nc1ncc(Cc2cccc(Cl)c2)s1	-23.0%	-18.9%	15.4%	6.5%	2.6%	-9.6%	-1.5%	16.4%
NC(=O)N/N=C1\c2ccccc2-c2c(C(N)=O)cccc21	-23.3%	/	34.9%	/	/	0.6%	/	-4.2%
N[C@@H](CO)c1nnc([C@H](CC(=O)O)NC(=O)C2CCNCC2)o1	-14.5%	/	-7.5%	/	/	-0.5%	/	1.1%
O=C(NCCc1nccs1)C1CCC(=O)N(CCc2ccc(Cl)cc2)C1 (configuration not stated)	-11.1%	-11.8%	15.3%	9.0%	/	17.8%	/	5.1%
Cc1cc(C)cc(C(=O)OCC(=O)NC(=O)NC2CCCC2)c1	-12.9%	2.7%	3.5%	9.5%	/	/	/	-3.0%
Cc1ccc2cc3cc(C(=O)NCc4ccc5c(c4)OCO5)oc3nc2c1	11.3%	?	1.4%	?	-2.0%	9.0%	-6.0%	0.5%
CC(=O)c1ccc(NC(=O)Cn2nc(N3CCN(c4ccccc4)CC3)ccc2=O)cc1	-1.3%	5.6%[46.1 µM]	/	/	19.8%	/	-4.9%	/
CCCNC(=O)N1CCC(C(=O)c2ccc(Cl)cc2)CC1	-11.6%	0.0%	-8.6%	0.0%	-2.4%	-4.6%	1.7%	-12.0%
Cc1ccc2cc3cc(C(=O)N4CCN(c5ccccc5)CC4)oc3nc2c1	-3.1%	25.3%[46.1 µM]	/	/	-7.5%	/	-2.3%	/
CC1Cc2ccccc2N1Cc1ccc([N+](=O)[O-])cc1 (configuration not stated)	-14.1%	-11.4%	-9.6%	-0.6%	/	4.0%	/	-8.4%
N#Cc1cccc(NC(=O)Cn2c3[n+](c4ccc(C(F)(F)F)cc42)CCCCC3)c1	-2.8%	15.1%	0.3%	?	-17.6%	3.2%	-2.0%	-12.8%
O=C1NCCCC1C(=O)N/N=C/c1ccccc1 (configuration not stated)	/	-10.7%	-7.4%	0.3%	5.6%	-5.3%	-4.3%	?
Cc1sc2nc(SCC(=O)N(C)C)[nH]c(=O)c2c1C	-3.3%	-3.3%	22.1%	-13.0%	-4.6%	0.2%	6.2%	-2.6%
C[C@H]1CNC(=O)C(=O)N1C[C@H](Cc1ccc(O)cc1)NC(=O)CC12CC3CC(CC(C3)C1)C2	-0.2%	/	-14.1%	/	/	-1.6%	/	0.2%
C=CCNC(=S)NNC(=O)c1ccc([N+](=O)[O-])cc1	12.1%	-0.2%	-5.3%	5.1%[46.1 µM]	/	/	/	-4.0%
C=C(C)Cn1c(=O)n(CC2CS2)c2ccccc21 (configuration not stated)	-23.3%	?	2.0%	?	8.2%	-2.2%	-2.6%	-5.3%
COc1cc(NS(=O)(=O)c2ccccc2)ccc1-n1nc(C)cc1C	5.6%	9.8%	5.1%	8.7%	4.0%	-6.1%	-3.0%	?
CCC(=O)N1c2ccc(S(=O)(=O)NCc3ccco3)cc2CC1C (configuration not stated)	46.8%[activator]	/	5.3%	/	/	6.9%	/	-0.5%
Cc1ccc2cc(C(c3nnnn3Cc3ccccc3)N3CCN(c4ccccc4)CC3)c(=O)[nH]c2c1 (configuration not stated)	-14.0%	-18.5%	5.2%	20.6µM*	-24.7%	4.9%	-1.3%	-0.8%
CCOc1ccccc1NC(=O)CSc1nnc(N)s1	-11.2%	12.0%[46.1 µM]	/	22.1%[46.1 µM]	7.2%	/	-2.9%	/
CC(=Nc1ccc2c(c1)CCC2)c1c(O)n(C2CCCCC2)c(=O)[nH]c1=O	29.2%	-6.3%	2.4%	-4.3%	-16.1%	5.7%	-5.3%	1.0%
O=C1C(CO)C(CO)C(CO)C1CO (configuration not stated)	-8.5%	4.1%[46.1 µM]	8.9%	4.0%[46.1 µM]	/	/	/	/
COc1cccc(Cn2c(-c3cccs3)noc2=O)c1	31.8%	7.7%	9.0%	-2.2%	4.8%	-5.0%	2.2%	1.2%
CCc1ccccc1NC(=O)C1CCCN(c2nn3c(=O)cc(C)nc3s2)C1 (configuration not stated)	-11.8%	/	-6.8%	/	/	10.5%	/	4.0%
CCCC(C)NC(=O)c1sc2nc3n(c(=O)c2c1C)CCC3 (configuration not stated)	0.0%	11.2%	20.3%	7.6%	/	/	/	-0.5%
COc1ccc(NC(=O)CN2C(=O)CSC(C)C2=O)c(OC)c1 (configuration not stated)	12.8%	-0.2%	0.5%	8.6%	-10.3%	0.4%	-1.9%	7.1%
CNc1oc(/C=C/c2cc(OC)c(OC)c(OC)c2)nc1C#N	-15.6%	-19.4%[46.1 µM]	/	-0.3%[46.1 µM]	10µM*	/	28.2µM*	/
O=C(CCCn1cnc([N+](=O)[O-])n1)Nc1cc(Cl)ccc1O	-18.5%	-10.0%[46.1 µM]	8.1%	0.8%[46.1 µM]	/	/	/	-0.2%
CN(CC(=O)Nc1ccc(C#N)cc1)Cc1ccc(Cl)cc1Cl	-13.1%	0.1%	9.2%	-2.6%	-8.0%	-30.9%	-3.4%	-28.6%
C=Cc1cccc(NC(=O)COc2ccccc2)c1	33.6%[activator]	8.3%	20.0%	17.5%	0.0%	-18.2%	-2.7%	-5.6%
COc1ccc(N(Cc2ccc(N(C)C)cc2)C(=O)c2ccc(S(C)(=O)=O)cc2)cc1	-2.0%	?	1.9%	2.3%[46.1 µM]	/	-3.9%	/	1.3%
Nc1nc(SCC(=O)Nc2ccc(OC(F)(F)F)cc2)[nH]c(=O)c1NC(=O)c1ccc(Br)o1	-6.0%	?	-6.3%	1.5%	/	-4.8%	/	4.4%
Cc1ccc2cccc(S(=O)(=O)N3CCN(c4ccccc4F)CC3)c2n1	-30.0%	0.6%	-0.1%	-12.4%	14.1%	-22.4%	-7.7%	3.4%
COc1ccc(NC(=O)c2cc(C(=O)Nc3ccc(OC)cc3OC)cc([N+](=O)[O-])c2)c(OC)c1	-12.0%	/	-6.2%	/	/	?	/	1.4%

Entries of single compounds, quoted from the list. Values in the order: 2A StopGo | Lassa entry inh | RE007 growth inh | MARV entry inh | Cruzain inh noDet | NS1 function inh | Cruzain inh Det | SARS PLpro yeast
CCOc1ccccc1NC(=O)CSc1nnc(N)s1 reads -11.2% | 12.0%[46.1 µM] | / | 22.1%[46.1 µM] | 7.2% | / | -2.9% | /
CCCC(C)NC(=O)c1sc2nc3n(c(=O)c2c1C)CCC3 (configuration not stated) reads 0.0% | 11.2% | 20.3% | 7.6% | / | / | / | -0.5%
NC(=O)N/N=C1\c2ccccc2-c2c(C(N)=O)cccc21 reads -23.3% | / | 34.9% | / | / | 0.6% | / | -4.2%

Continuation:
SMILES	2A StopGo	Lassa entry inh	RE007 growth inh	MARV entry inh	Cruzain inh noDet	NS1 function inh	Cruzain inh Det	SARS PLpro yeast
CCOCCc1nn2c(=O)cc(COC(=O)c3cccs3)nc2s1	4.9%	13.5%[46.1 µM]	/	/	6.8%	/	-1.2%	/
CC(c1ccco1)N(Cc1ccco1)C(=O)Nc1ccccc1 (configuration not stated)	-14.4%	?	-0.7%	28.1%	-13.1%	-7.6%	2.7%	-4.5%[6.58 µM]
CCOc1cc(CNCc2ccccn2)ccc1OCC(=O)NC(C)(C)C	-22.1%	?	2.2%	7.08µM*	-12.0%	-6.0%	2.9%	1.3%
COc1ccccc1CNC(=O)CCS(=O)(=O)c1ccc2c(c1)CCCN2C(C)=O	5.9%	?	-5.3%	6.0%	-19.9%	0.4%	9.1%	8.6%
COc1cc(/C=N/NC(=O)CCNC(=O)c2ccccc2Cl)ccc1O	3.1%	4.1%	-13.6%	12.0%	/	16.8%	/	1.1%
CCSc1nsc(NC(=O)Nc2ccccc2F)n1	-2.1%	?	-1.8%	?	/	-7.3%	/	-1.4%
CC(NC(=O)NC12CC3CC(CC(C3)C1)C2)C1CCCO1 (configuration not stated)	22.6%	2.4%	5.8%	-4.8%	-18.9%	-24.6%	0.7%	6.8%
COc1ccc(OCC(=O)N2CCN(Cc3cc(=O)n4nc(-c5ccccc5C)sc4n3)CC2)cc1	?	-13.3%[46.1 µM]	/	/	?	/	-5.9%	/
COc1ccc(-c2cc3nc(C)cc(N4CC(C)CC(C)C4)n3n2)cc1 (configuration not stated)	-7.0%	-19.5%	?	-0.9%	8.4%	-5.0%	-15.7%	-86.3%
C/C(CC(=O)Nc1cccc(Cl)c1C)=N\NC(=O)C(=O)NCC(C)C	-2.6%	3.3%	-1.0%	?	-20.5%	10.1%	-1.6%	-3.8%
CSc1nnc(C)c(=O)n1COC(=O)COc1ccc2ccccc2c1	-6.5%	2.4%	0.3%	26.5%	8.8%	-1.7%	-3.9%	0.2%
CC(=O)N1CCN(C(=O)CNC(=O)c2ccc(C)s2)CC1	-8.2%	-2.7%	-15.3%	18.6%	/	/	/	/
Cn1cc(/C=N/NC(=O)c2cc3cc(Br)ccc3o2)c2ccccc21	-5.3%	?	-29.8%	?	/	-0.9%	/	-3.3%
COc1nc(OCCNC(=O)Nc2ccccc2)nc(N(C)C)n1	12.7%	22.8%	1.8%	10.0%	1.6%	1.7%	1.4%	10.9%
Cc1ccc(S(=O)(=O)CC(O)CN2CCCC2=O)cc1 (configuration not stated)	16.7%	-1.7%	12.6%	-0.2%	-0.6%	9.8%	3.8%	1.2%
Cc1oc2ncnc(N3CCCCC3)c2c1C(=O)NCC1CCN(Cc2cccc(F)c2)CC1	-8.4%	26.1%[46.1 µM]	/	/	-3.1%	/	-2.5%	/
